LANA-H2A inh: blocks KSHV LANA binding to histone H2A/H2B; inhibition, % (test concentration not listed); cell-free LANA-H2A/H2B peptide, fluorescence polarization; actives 0.6% (n = 320,000); Q9QR71; in the data active means inhibition mostly above about 10%, no sharp cut-off; inactive means mostly below about 6.7%;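 further: stock transfer was 7.5 nL into about 10 µL; 0% = median of vehicle wells and 100% = median of positive control wells; one replicate is shown; the record names a cut of 25% in any replicate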
UCH37 inh: human UCH37 deubiquitinating enzyme inhibition. purified proteasome/UCH37, Ub-AMC cleavage fluorescence. actives 0.33% (n = 330,000). AID 588478. inhibition, % (no concentration beside the values). Q9Y5K5;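 active means mean of two replicates above 20%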;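 further: 0% = compound-free wells with enzyme and 100% = wells lacking proteasome; stock transfer was 100 nL into about 20 µL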
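Material: human UCH37 enzyme supplied as purified proteasome complex. Measure: % inhibition of Ub-AMC cleavage fluorescence. Medium: pH 7.4 Tris-HCl (50 mM) with ovalbumin, ATP-MgCl2, DTT. Times: 30 min preincubation with enzyme, 25 min cleavage at room temperature. Detection: AMC fluorescence intensity at 355/460 nm.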
ALR inh: human ALR oxidase inhibition via reduced H2O2. inhibition, % (concentration not given with the values). actives 3.8% (n = 290,000). P55789. purified ALR, DTT oxidation, H2O2 HRP-luminol luminescence;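 active means mean and each replicate at 75% or more; inconclusive means only one of the two met; inactive means neither met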;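 further: stock transfer was 7.5 nL into about 7.5 µL; 0% = neutral wells and 100% = wells with inactivated enzyme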
Ecoli growth: blocks Escherichia coli growth. OD600, 23 h; hits give low values. OD600 absorbance (concentration not given with the values). actives 0.21% (n = 330,000);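 active means OD600 absorbance below the run mean of sample wells minus 3.6 SD, in any replicate, cut at about 0.56 in these data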;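 further: stock transfer was 300 nL into about 60 µL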
HNF4A DNA FP: change in binding of human HNF4 alpha to DNA. P41235. actives 0.3% (n = 360,000). activity change, % at 10 µM. AID 1224865. HNF4a-FITC DNA binding, fluorescence polarization, 1 h; in the data active means activity change above about 30%, passing the limit was not always enough;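 further: controls were the assay level and a saturating level of protein; the project sought stronger binding though the title names inhibitors; some compounds called inactive have numbers as strong as hits; positive values seem to mean higher polarization but the record does not say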
Target sequence (P41235 whole entry, looked up): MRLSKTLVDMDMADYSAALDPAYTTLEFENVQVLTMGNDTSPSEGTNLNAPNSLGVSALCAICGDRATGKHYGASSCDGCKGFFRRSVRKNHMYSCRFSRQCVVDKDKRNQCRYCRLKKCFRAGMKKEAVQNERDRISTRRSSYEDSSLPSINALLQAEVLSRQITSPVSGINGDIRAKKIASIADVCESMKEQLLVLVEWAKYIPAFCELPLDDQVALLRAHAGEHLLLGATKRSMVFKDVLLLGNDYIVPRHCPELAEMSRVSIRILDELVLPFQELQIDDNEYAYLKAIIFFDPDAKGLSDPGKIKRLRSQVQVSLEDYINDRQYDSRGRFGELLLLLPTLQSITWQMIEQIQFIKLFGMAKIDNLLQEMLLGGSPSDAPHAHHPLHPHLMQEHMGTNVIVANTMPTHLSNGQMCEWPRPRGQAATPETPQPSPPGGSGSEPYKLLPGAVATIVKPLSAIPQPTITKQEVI
B2AR ag: human beta-2 adrenergic receptor agonism by FAP; response, % (concentration not given with the values); AID 504454; Am2.2-beta2AR cells, FAP receptor internalization, flow cytometry; reference of the scale not given here; actives 0.43% (n = 340,000);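 active means response above a set limit, near 3 SD of response in nonfluorescent compounds, cut at about 42% in these data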;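 further: stock transfer was 100 nL into about 11 µL; a reference agonist was the positive control; negative values mostly stem from fluorescent compounds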
Target sequence (P07550 whole entry, looked up): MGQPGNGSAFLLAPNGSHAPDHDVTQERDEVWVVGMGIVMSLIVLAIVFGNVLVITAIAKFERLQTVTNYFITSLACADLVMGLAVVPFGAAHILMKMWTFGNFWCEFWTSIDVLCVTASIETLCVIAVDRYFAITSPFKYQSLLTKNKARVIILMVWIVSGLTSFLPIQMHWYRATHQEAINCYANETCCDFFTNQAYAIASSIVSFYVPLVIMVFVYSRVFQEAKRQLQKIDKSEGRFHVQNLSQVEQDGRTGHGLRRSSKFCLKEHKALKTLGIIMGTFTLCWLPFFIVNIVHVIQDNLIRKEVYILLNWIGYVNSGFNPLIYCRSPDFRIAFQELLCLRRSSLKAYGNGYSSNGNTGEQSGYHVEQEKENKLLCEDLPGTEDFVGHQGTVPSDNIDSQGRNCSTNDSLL
FGF22 binding: shifts melting point of recombinant human FGF22; AID 651658; Q9HCT0; calls only at 9.99 µM; actives 1.5% (n = 340,000); recombinant FGF22 thermal shift, SYPRO orange fluorescence; percent of sucrose octasulfate shift, DMSO zero;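 active means melting point raised past a set limit in the mean and every replicate; inconclusive means no clear call; three in four hits are not shown here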
Starred values were filed as active, the others as inactive; i = inactive; u = inconclusive; x = not tested or not shown; + = active, no number.

canonical_smiles	LANA-H2A inh	UCH37 inh	ALR inh	Ecoli growth	HNF4A DNA FP	B2AR ag	FGF22 binding
O=C(NC1CCCCC1)c1ccc2c(c1)OCCO2	0.8	1.2	8	0.66	0.3	-3	i
COc1cccc(OCCn2cc(C=O)c3ccccc32)c1	1.8	1.0	7	0.65	-0.8	0	i
CC1CCN(S(=O)(=O)c2ccc(NC(=O)c3ccco3)cc2)CC1	-3.1	3.2	x	0.66	-0.9	-11	i
O=C(NCc1ccco1)c1cc([N+](=O)[O-])ccc1N1CCOCC1	-3.9	8.0	1	0.68	4.6	-1	i
Cc1ccc(CN2CCN(C3CCC3)CC2CCO)cc1 (stereo unspecified)	2.6	0.4	-9	0.67	0.2	-2	i
COc1cc2c(cc1OC)C(C(=O)N1CCCCC1)C(c1ccccc1F)N(C)C2=O (stereo unspecified)	6.3	1.2	-8	0.7	-1.9	4	x
COc1cccc(OC)c1C(=O)Nc1sc2c(c1C(N)=O)CCN(Cc1ccccc1)C2	7.5	-9.6	x	0.77	1.8	-1	i
CC1CCCN(c2nc3ccsc3c(=O)s2)C1 (stereo unspecified)	4.0	-11	-3	0.68	0.4	7	x
Cc1c2c(nc3ccccc13)OCC2	x	x	x	x	3.0	1	i
CN(C)CCCN1C(=O)C(O)=C(C(=O)c2cc3ccccc3o2)C1c1ccccn1 (stereo unspecified)	x	11	x	0.68	-2.5	-4	i
Cc1cccc(-c2n[nH]c(=S)n2/N=C/c2cccs2)c1	2.8	x	1	x	0.9	1	i
Cc1nc(-c2ccccn2)sc1C(=O)Nc1ccc(F)cc1	-4.3	6.2	-22	0.67	2.7	-6	x
CN(C)S(=O)(=O)c1ccc(NC(=O)CSc2nnnn2C)cc1	-1.7	-3.0	-5	0.69	-1.4	3	i
Cc1c(C(=O)NCCc2ccccc2)oc2ccc(S(=O)(=O)N3CCC4(CC3)OCCO4)cc12	0.3	3.1	-14	0.69	1.1	9	x
O/N=C/c1ccccc1OCc1ccc(Cl)cc1	2.3	x	1	x	-2.8	-4	x
CCOc1cc(/C=N/NC(=O)c2ccc(CN3CCOCC3)cc2)ccc1OCc1ccccc1	1.3	x	1	x	-1.4	9	x
CCOc1ccc(S(=O)(=O)Nc2cccc(C(=O)N3CCN(c4ccc(OC)cc4)CC3)c2)cc1	-2.0	2.2	11	0.74	2.6	6	x
COc1ccc(OC)c(NC(=O)c2csc(Cl)c2OC)c1	3.6	0.8	-8	0.62	0.5	10	i
Cc1nc(Nc2cccc(C(F)(F)F)c2)nc2c1C(=O)CC(C)C2 (stereo unspecified)	-2.4	3.5	2	0.8	0.9	-8	x
Cc1ccc(NC(=O)c2ccc(S(=O)(=O)Nc3c(C)n(C)n(-c4ccccc4)c3=O)cc2)nc1	-2.7	0.5	-18	0.64	-3.1	0	i
Cc1cccc(C)c1NC(=O)C(NC(=O)c1ccccn1)c1ccccc1[N+](=O)[O-] (stereo unspecified)	9.4	2.9	-3	0.68	1.8	3	i
O=C(N/N=C/c1cccnc1)C1CC1(c1ccccc1)c1ccccc1 (stereo unspecified)	5.9	x	2	x	1.4	-14	i
CC(C)(C)NCC(=O)c1c[nH]c2ccccc12	-0.4	3.6	-5	0.69	-2.4	-12	x
O=S(=O)(N1CCOCC1)N1CCN(c2ccc(F)cc2)CC1	-4.3	6.0	26	0.64	0.3	-10	i
O=C(O)c1cccc2c1Cc1cc([N+](=O)[O-])ccc1-2	x	12	x	0.63	-1.8	3	i
Cc1ccc(S(=O)(=O)N2CCC(C(=O)NCc3ccccc3Cl)CC2)cc1	93*	5.4	-5	0.74	-3.0	-2	x
N/C(=N\OC(=O)CCCc1ccccc1)c1ccccn1	0.0	1.3	-3	0.64	-2.6	5	i
CCOC(=O)c1c(C)[nH]c(C(=O)OCc2csc(CC(=O)Nc3ccccc3C)n2)c1C	-5.5	4.0	1	0.67	2.0	7	i
Cn1cc(/C=N/NC(=O)c2cc3cc(Br)ccc3o2)c2ccccc21	-5.0	x	-8	x	0.6	-5	i
CCOc1ccccc1CN1CCCC(CNC(=O)Cc2ccc(OC)cc2)C1 (stereo unspecified)	7.7	2.3	x	0.7	2.5	3	i
O=C(COc1ccccc1)Nc1c2c(nn1-c1ccccc1)CS(=O)C2 (stereo unspecified)	-0.9	0.3	0	0.69	1.5	5	i
C[C@H](CO)N1C[C@H](C)[C@@H](CN(C)S(C)(=O)=O)Oc2c(NC(=O)c3ccncc3)cccc2C1=O	5.5	3.3	-1	x	-3.6	1	i

Four entries from above, reformatted:
> O=C(NC1CCCCC1)c1ccc2c(c1)OCCO2
  LANA-H2A inh: 0.8; UCH37 inh: 1.2; ALR inh: 8; Ecoli growth: 0.66; HNF4A DNA FP: 0.3; B2AR ag: -3; FGF22 binding: i

> COc1cccc(OCCn2cc(C=O)c3ccccc32)c1
  LANA-H2A inh: 1.8; UCH37 inh: 1.0; ALR inh: 7; Ecoli growth: 0.65; HNF4A DNA FP: -0.8; B2AR ag: 0; FGF22 binding: i

> CC1CCN(S(=O)(=O)c2ccc(NC(=O)c3ccco3)cc2)CC1
  LANA-H2A inh: -3.1; UCH37 inh: 3.2; ALR inh: x; Ecoli growth: 0.66; HNF4A DNA FP: -0.9; B2AR ag: -11; FGF22 binding: i

> O=C(NCc1ccco1)c1cc([N+](=O)[O-])ccc1N1CCOCC1
  LANA-H2A inh: -3.9; UCH37 inh: 8.0; ALR inh: 1; Ecoli growth: 0.68; HNF4A DNA FP: 4.6; B2AR ag: -1; FGF22 binding: i

The listing continues:
canonical_smiles	LANA-H2A inh	UCH37 inh	ALR inh	Ecoli growth	HNF4A DNA FP	B2AR ag	FGF22 binding
COC(=O)c1ccccc1NC(=O)CNC(=O)c1ccco1	-5.9	0.2	5	0.69	0.5	-6	x
O=C(CSc1nnnn1-c1ccccc1)CC(=O)Nc1ccc(Cl)cc1	-0.7	1.7	3	0.68	0.5	-6	x
c1ccc(CNCCCNCCCCNCCCNCc2ccccc2)cc1	x	x	x	x	-1.8	16	i
Cc1cccc2c1-c1sc(C(=O)NCCCN3CCc4ccccc4C3)cc1CO2	-1.5	i	x	0.69	0.0	10	i
CCOC(=O)c1[nH]c2ccccc2c1N=C(C)N(CC)CC	3.7	1.0	u	0.68	-1.2	-2	x
O=C(NCc1ccccn1)Nc1cccc(NC(=O)NCc2ccccn2)c1	-1.5	3.0	4	0.66	-5.2	0	x
O=C(O)[C@H](Cc1ccccc1)N1C(=O)c2c(Cl)c(Cl)c(Cl)c(Cl)c2C1=O	4.2	1.4	u	x	-1.7	4	+
CC1CN(CCOc2ccccc2[N+](=O)[O-])CC(C)O1 (stereo unspecified)	1.3	3.1	-5	0.68	-2.1	-1	i
Fc1ccc(CN2CCSCC2)cc1F	1.4	2.1	-2	0.61	-3.5	1	i
COCCNC(=S)N1CCN(C)CC1	-2.4	-2.8	0	0.7	3.8	4	i
O=C(O)COc1ccccc1/C=N/NC(=O)c1ccc2c(c1)OCCO2	0.3	x	7	x	3.8	4	i
CCOC(=O)C1(Cc2ccccc2)CCN(Cc2ccon2)CC1	-0.9	0.9	-6	0.69	1.6	1	i
CC(C)C(=O)Nc1c(C(=O)c2ccc(F)cc2)oc2ccccc12	-1.1	-61	-13	0.79	1.1	8	i
C(=N\Nc1nc(-c2ccccc2)cs1)/c1cccs1	-1.2	x	-5	x	-5.1	-11	x
CC1(C)Cc2nc3sc(C(=O)NCCCO)c(N)c3cc2CS1	-3.7	-1.2	x	0.68	0.7	13	i
COC(=O)C1=C(C)Nc2[nH]c(=S)[nH]c(=O)c2C1c1ccc(OC)cc1 (stereo unspecified)	-0.9	5.6	52	0.69	1.2	2	i
CCOC(=O)C1=C(COC(=O)/C=C/c2ccc(OC)cc2)NC(=O)NC1C (stereo unspecified)	x	4.1	x	0.69	0.7	1	i
O=C(N1CCCCC1)N1CCCN(C(=O)N2CCCCC2)CC1	-0.3	-17	-6	0.78	-3.2	-7	x
Cc1ncc2c(n1)-c1cc(F)ccc1SC2	-0.1	-21	6	0.69	3.3	2	i
Cc1cccc(CC2CC(=O)N(C3CCCCC3)C2=O)c1 (stereo unspecified)	1.0	0.8	1	0.65	-1.4	-9	i
Cc1ccc(C2=N/C(=C\c3cccc(F)c3)C(=O)O2)cc1	-4.8	-3.7	3	0.72	1.2	2	i
CCN(CC)CCN1C(=O)C2C(C(=O)Nc3ccc(Br)cc3)C3C=CC2(O3)C1C(=O)NC1CCCCC1 (stereo unspecified)	1.2	1.9	-2	0.68	-2.3	4	i
CCN(CC)CCNc1ncnc2c1sc1nc(N3CCOCC3)c3c(c12)CCCC3	-4.2	-7.2	-9	0.67	15	25	i
O=C(O)CSc1nnc(Cc2ccccc2)n1-c1ccccc1	-6.0	1.1	-7	0.67	1.3	6	x
O=C(CNCC(=O)Nc1ccc(F)c(F)c1F)Nc1ccc(F)c(F)c1F	-2.6	4.5	-2	0.63	1.6	-6	i
O=C(COC(=O)c1ccc(S(=O)(=O)NCc2ccco2)cc1)Nc1ccc(OC(F)F)cc1	5.3	2.3	-3	0.72	-4.2	3	x
COc1ccccc1-c1nnc(NC(=O)Cc2ccccc2)o1	2.8	2.0	-2	0.69	-2.9	1	i
Cc1ccc(C)c(NC(=O)CN(C)C(=O)c2cc(S(=O)(=O)N3CCOCC3)ccc2N2CCCC2)c1	0.6	2.9	-15	0.71	1.4	3	i
C=COCCCNc1ncnc2sc(-c3ccccc3)cc12	0.2	-77	-8	0.64	-2.0	10	i
CCN(C[C@H]1N[C@@](CC)(C(=O)OC)[C@H]2C(=O)N(Cc3ccccc3)C(=O)[C@@H]12)C(=O)Nc1ccc(OC)cc1	i	0.9	-9	0.66	-1.5	0	i
Clc1ccc(N2CCN(Cc3ccco3)CC2)cc1	1.3	4.1	x	0.62	-1.8	-11	i
Nn1c(SCC(=O)NC2CCCCCC2)nnc1C(F)(F)F	-6.9	0.3	-5	0.7	-2.2	-12	i
C=CCSc1nc2sc3c(c2c(=O)n1CC=C)CCc1ccccc1-3	-12	3.8	-18	0.71	4.7	7	x
COc1ccc(-c2noc(CCC(=O)N3CCC(C)CC3)n2)cc1	-0.2	3.7	3	0.65	3.7	-6	x
CCOc1cc(CNCCN2CCOCC2)ccc1OCc1ccccc1Cl	-1.7	1.7	-12	0.63	0.9	2	i
Cc1ccc(NS(=O)(=O)c2ccc3c(c2)NC(=O)CCS3)cc1C	1.8	4.5	-24	0.7	-2.2	2	i

Assay outcomes: PubChem BioAssay, several laboratories

Only part of the results is shown. The share of hits here may be higher or lower than overall.
